Screens: PubChem BioAssay, National Center for Advancing Translational Sciences (NCATS)
Rango-impB inh – qHTS Assay for Inhibitors of Rango (Ran-regulated importin-beta cargo) - Importin beta complex formation. Importin subunit beta-1 (Homo sapiens), Q14974. hit rate 0.031% among 340,000. Potency, µM (titrated, usually from 92.2 µM), without a hit: at the top dose inhibition of complex formation. Rango CFP/YFP FRET sensor + importin beta, 45 min; active = rising FRET ratio curve, often small or poorly fitted; inconclusive = mostly compound fluorescence or quenching in the first reads; inactive = flat curves in all reads;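 also: potency is read from the fitted curve at half-maximal effect; 0% = DMSO wells and 100% = buffer wells lacking importin beta; nearly all actives have a fitted effect of over 15% in size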
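FRET biosensor Rango (snurportin 1 IBB between N-terminal EYFP and C-terminal Cerulean), 50 nM in PBS/1 mM DTT/0.02% Tween-20/0.1% BSA, preincubated 5 min RT with compound; 0.125 microM importin beta added, 45 min RT, CFP/YFP FRET ratio read.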
miR-21 reporter – qHTS Assay for Modulators of miRNAs and/orActivators of miR-21. HeLa miR-21 FLuc reporter, luciferase, 48 h. Potency, µM (series often up to 38.3 µM), for inactives: top-dose reporter change, positive = more light. 340,000 tested, under 10 active. AID 2288, 2010; active = well fitted rising curve with a large enough effect; inconclusive = small, poorly fitted or top-dose-only effect; inactive = no such curve, though single readings can be large or run the other way;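 also: % of control where 0% means no effect; miR-21 action dims this reporter so a rising signal means less miR-21 action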
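HeLa cells endogenously expressing miR-21, stably carrying CMV-driven firefly luciferase with a downstream miR-21 binding site, 2000 cells/well. Titrations up to approximately 40 uM, 48 hours; luciferase luminescence read.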
GLA inh pH 4.5 – qHTS Assay for Inhibitors of Human alpha-Galactosidase at pH 4.5; Alpha-galactosidase A (Homo sapiens), P06280; purified enzyme, 4-MU-alpha-Gal fluorescence, pH 4.5; activity change, negative = inhibition, % at 105 µM; 230,000 tested, under 10 active; inconclusive = small, poorly fitted or top-dose-only inhibition, or a rising curve; inactive = flat fitted curve, though single readings scatter; no compound was filed as active;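 also: 0% = full activity with enzyme and -100% = basal without enzyme; dose as in the result columns while the protocol names 77 µM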
Target sequence (P06280 whole entry, looked up): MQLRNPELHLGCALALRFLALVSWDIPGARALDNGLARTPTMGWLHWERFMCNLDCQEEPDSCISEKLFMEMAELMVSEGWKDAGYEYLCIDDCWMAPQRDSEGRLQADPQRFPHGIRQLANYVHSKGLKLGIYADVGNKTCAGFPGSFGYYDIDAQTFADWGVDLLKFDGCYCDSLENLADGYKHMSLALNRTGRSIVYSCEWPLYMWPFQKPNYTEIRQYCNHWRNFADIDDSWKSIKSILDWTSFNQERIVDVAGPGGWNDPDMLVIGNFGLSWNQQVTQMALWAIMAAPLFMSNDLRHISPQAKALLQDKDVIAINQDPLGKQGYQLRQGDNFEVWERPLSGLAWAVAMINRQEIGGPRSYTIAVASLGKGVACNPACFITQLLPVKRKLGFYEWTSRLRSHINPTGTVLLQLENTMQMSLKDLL
Rango release inh – qHTS Assay for Inhibitors of RanGTP induced Rango (Ran-regulated importin-beta cargo) - Importin beta complex dissociation; Biochemical FRET Rango-importin beta, RanGTP-induced dissociation; Potency, µM (series often up to 46.1 µM), for the others: at the top dose activity change, negative = inhibition; hit rate 0.071% among 340,000; active means falling FRET ratio curve, often poorly fitted, with flat reads before Ran was added; inconclusive means other falling curves, or compound fluorescence or quenching; inactive means flat or rising ratio curve;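 also: potency is read from the fitted curve at half-maximal effect; % of control where 0% means no effect; nearly all actives have a fitted effect of over 45% in size; -100% = wells without RanGTP and RCC1; the record marks most hits as doubtful in a second field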
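Two FRET readings bracket the reaction: one 5 min after compound meets Rango–importin beta, another 45 min after RanGTP-RCC1 (0.6 uM Ran, 0.2 uM RCC1, 2 mM GTP) is added. Only the second defines inhibition.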
* marks the source's active call; other numbers are inactive results; ? = inconclusive; · = no result given; & = joins results of further samples. This is a subset; count on the stated rates, not on these rows.

SMILES	Rango-impB inh	miR-21 reporter	GLA inh pH 4.5	Rango release inh
CCCCN(C)CCNC(=O)c1cc(-c2cccnc2)nc2ccc(S(=O)(=O)N3CCC(C)CC3)cc12	-1.6%	-7%&-5%	·	?
CCN(CC)c1ccc(-c2nc3cnccn3c2NC2CCCC2)cc1	?	-11%	-25	?
COC(=O)COc1ccc(C(c2c(C)[nH][nH]c2=O)c2c(C)[nH][nH]c2=O)cc1	0.2%	0%	·	-9%
CC1=C(C(=O)Nc2ccccc2)C(c2ccc(C)cc2)N=C(Nc2nc3ccccc3o2)N1 (stereo not given)	-3.6%	-1%	2	1%
CCC(=Cc1ccc(CC)cn1)CC	2.7%	2%	-3	11%
O=C(c1ccc([N+](=O)[O-])cc1)N(Cc1cccs1)C1CCS(=O)(=O)C1 (stereo not given)	-0.2%	1%	·	7%
COC(=O)c1ccccc1NC(=O)c1ccc2c(c1)OCCCO2	0.1%	-33%	·	-8%
CC(C)c1ccc(NC(=O)/C(C#N)=C/c2ccncc2)cc1	-3.7%	-12%	·	1%
CCOC(=O)c1c(C)nc2sc3c(c2c1-c1ccc(OC)cc1)NC(c1ccccc1)NC3=O (stereo not given)	?	-7%	4	?
CSCCC(NC(=O)C1CCCCC1)c1nc2ccccc2[nH]1 (stereo not given)	0.1%	-1%	-8	-1%
Cc1ccc(S(=O)(=O)NCCc2ccncc2)cc1C	0.0%	-6%	1	-4%
CCCCC(=O)Nc1cccc(NC(=O)C(C)C)c1	-2.2%	-4%	1	7%
CCc1ccc(NC(=O)c2cnn(-c3ccccc3)c2C)cc1	-2.4%	-39%	0	-9%
Cc1ccc(CNC(=O)CCNS(=O)(=O)c2cccs2)cc1	4.0%	-2%	-2	9%
CCOc1ccc(-c2c(C(=O)N/N=C/c3ccc(OC)cc3)nnn2-c2nonc2N)cc1	0.8%	-1%	-5	-5%
CCOC(=O)c1c(NCc2ccc3c(c2)OCO3)c2ccccc2[nH]c1=O	-4.3%	-32%	1	15%
Cc1cc(C)c(NC(=O)CN2C(=O)NC3(CCCCC3)C2=O)c(Cl)c1	1.3%	-2%	1	7%
CCc1cccc(Nc2c3c(nc4ncnn24)CCC3)c1	6.0%	-11%	-6	42%
Cc1ccc2c(CC(=O)NNC(=O)c3ccncc3)coc2c1	-1.5%	·	·	17%
Cn1c(/C=C/c2ccc([N+](=O)[O-])o2)nc2ccccc2c1=O	17%	?	3	3%
O=C(CNS(=O)(=O)c1ccccc1)OCC(=O)c1ccccc1Cl	2.8%	-2%	·	-1%
Cc1c(NC(=O)c2csc3c2CCCC3)c(=O)n(-c2ccccc2)n1C	0.2%	0%	·	12%
CCn1c(SCC(=O)Nc2ccc3c(c2)OCCO3)nnc1-c1ccccn1	-2.5%	-9%	1	7%
COc1cccc(C(=O)/C=C/Nc2ccc(S(=O)(=O)Nc3cnc4ccccc4n3)cc2)c1	?	-73%	-4	?
Cc1cccn2c(=O)nc(SCC(=O)N3CCCCCC3)nc12	-2.6%	·	·	1%
CCc1cc(=O)oc2c3c(cc(OCC(=O)NCCC(=O)O)c12)OC(C)(C)CC3	-0.1%	0%	·	-9%
O=C(CCC1CCN(Cc2ccc(C#CCCO)cc2)CC1)NC1CC1	?	-1%	·	8%
Cc1c(NS(=O)(=O)c2cc(C(=O)N(C)Cc3ccccc3)ccc2Cl)c(=O)n(-c2ccccc2)n1C	?	·	·	5%
CCCc1ccc(OCC(O)CN2CCc3ccccc3C2)cc1 (stereo not given)	-0.5%	8%	·	1%
Cc1oc(-c2ccccc2F)nc1CS(=O)(=O)CC(=O)N1CCCCCC1	0.8%	1%	8	-2%
COc1ccccc1CNC(=O)C1CCC(CNc2c(N3CCCCC3)c(=O)c2=O)CC1 (stereo not given)	-1.1%	-1%	8	-1%
CC(NCCc1ccc(O)cc1)C(O)c1ccc(O)cc1 (stereo not given)	1.2%	-12%	1	21%
COc1cccc(NC(=O)COc2ccc(Br)c(C)c2)c1	8.8%	-39%	·	17%
COc1ccc(N2CCN(CCCNC(=O)CN3C(=O)COc4ccccc43)CC2)cc1	-2.3%	-1%	·	-4%
O=S(=O)(NCC1(N2CCOCC2)CCCCC1)c1ccc(F)c(F)c1F	0.4%	·	·	-15%
CCOC(=O)N1CCN(c2nc3ccc(C)cc3n3cnnc23)CC1	-0.5%	3%	·	10%
O=C(NCC(=O)N(c1ccccc1F)C(C(=O)NC1CCCC1)c1ccncc1)c1ccco1 (stereo not given)	-0.8%	-1%	·	4%
COc1cc(C(=O)Oc2cc(C)cc(C)c2)cc(OC)c1OC	-0.3%	0%	-6	-3%
COc1ccc(NC(=O)CSc2nc(N)cc(N)n2)cc1S(=O)(=O)N1CCCCC1	0.5%	·	·	10%
Cc1cc(C)cc(NC(=O)CN2CCN(C(=O)C3CCCO3)CC2)c1 (stereo not given)	4.5%	-3%	·	-1%
Cc1ccc2nc(-c3cccnc3)c(NC3CCCC3)n2c1	-0.7%	-8%	-2	-13%
CSc1nnc(-c2ccccc2)c(=O)[nH]1	-0.6%	-4%	4	0%
Cc1onc(-c2ccccc2)c1C(=O)Nc1ccc(Cl)cn1	-1.1%	5%	-8	-7%
CC1=NNC(=O)C1CCC(=O)N/N=C/C=C/c1ccccc1 (stereo not given)	3.5%	-5%	2	8%
C=CCn1c(SCC(=O)NCc2ccc3c(c2)OCO3)nnc1C1CCCCC1	-3.3%	-7%	15	-1%
Cc1ccccc1NC(=O)c1cccc(NC(=O)c2ccco2)c1	-1.7%	-10%	·	0%
COc1cc(/C=N/NC(=S)NC(C)C)ccc1OCC(=O)Nc1c(C)cc(C)cc1C	2.2%	-3%	12	-6%
Oc1cccc(/C=N/Nc2cc(N3CCOCC3)nc(N3CCOCC3)n2)c1	-3.0%	-8%	-3	9%
O=C(NCCNC(=O)c1ccco1)c1ccc(F)cc1	-4.3%	-2%	3	-2%
CC(C)CCNC(=O)CN(C(=O)Cn1nnc(-c2ccc(F)cc2)n1)C1CCCC1	-3.4%	0%	-9	0%
CCOc1cccc(C(=O)NCc2ccccc2)c1	0.4%	-14%	7	-16%
CCCCOC(=O)c1cc(Cl)c(O)c(OC)c1	1.8%	-2%	-9	-19%
O=C(Nc1ccccc1)Nc1sccc1-c1nc2ccccc2s1	-2.2%	-15%	-7	-23%
Cc1ccc2cc(C)c(N3CCN(c4ccccn4)CC3)nc2c1	-1.2%	-24%	-9	1%
CC1CCCCN1CCCNC(=O)Cn1ncc2c([nH]c3ccccc32)c1=O (stereo not given)	-1.2%	-1%&-7%	·	10%
Cc1nccn1-c1ncnc2sc3c(c12)CCCC3	-2.0%	-10%	7	?
C=CCC[C@H](Cc1ccc(F)cc1)C(=O)OC[C@@H](NC(=O)[C@@H](CC=C)CC(=O)N[C@@H](CO)Cc1ccccc1)C(C)(C)C	-4.6%	·	·	-12%
O=C1c2ccccc2C(=O)N1CC1c2ccccc2CCN1S(=O)(=O)c1ccccc1 (stereo not given)	-1.4%	2%	-14	4%
Cc1cccn2cc(CSc3ccccc3N)nc12	3.3%	-41%	3	0%
COc1cc(OC)cc(-c2sc3ccc(OC)cc3c2C#CC2(N)CCCCC2)c1	?	·	·	?
(next part)
SMILES	Rango-impB inh	miR-21 reporter	GLA inh pH 4.5	Rango release inh
COc1ccc(Cl)cc1Nc1nnc(-c2ccncc2)s1	-2.7%	-11%	·	-4%
C#CCSc1nnnn1-c1cccc(Cl)c1	2.7%	24%	-9	-1%
Fc1ccc(CNC(=S)Nc2cccc(C(F)(F)F)c2)cc1	-6.2%	?	-3	1%
COc1ccc([N+](=O)[O-])cc1NC(=O)CSc1ccccc1	0.1%	-9%	3	28%
CCC(=O)Oc1ccc(C(=O)Nc2cccc(C(=O)NCC(C)C)c2)cc1	-2.5%	-3%	3	0%
COc1ccc2c(c1)[nH]c1c(=O)n(Cc3ccccn3)cnc12	-0.4%	-25%	-2	0%
O=C(c1ccccc1)N(Cc1cccnc1)C1(C(=O)Nc2ccccc2)CCCCC1	-1.0%	0%	4	-3%
COc1ccc(-c2csc(N3CCN(S(=O)(=O)c4ccc5c(c4)NC(=O)CO5)CC3)n2)cc1	-0.1%	30%	·	-5%
O=C(Nc1cccc(C(=O)Nc2ccccc2C(=O)O)c1)c1cccc(Cl)c1	-0.1%	·	·	-16%
FC(F)(F)c1ccccc1NC(=S)N1CCN(c2ccccn2)CC1	-1.6%	21%	0	?
CC(C)(C)c1ccc(C(=O)N2CCC(C(=O)NC3CC3)CC2)cc1	4.4%	-31%	·	12%
CC(=O)c1c(C)nn(C(=O)c2cccs2)c1C	0.0%	-4%	4	-15%
Cc1noc(C)c1S(=O)(=O)N(C)C[C@H]1Oc2ccc(NS(=O)(=O)c3ccc(F)cc3)cc2C(=O)N([C@H](C)CO)C[C@@H]1C	-2.7%	·	·	3%
Cc1ccc(/C=C/S(=O)(=O)NCCC(=O)NCc2ccccc2F)cc1	-1.2%	·	·	-11%
Cc1cc(C)n(S(=O)(=O)c2cc(Cl)ccc2Cl)n1	-3.7%	-3%	2	7%
CC(C)c1ccc(/C=N/Nc2cc(N3CCOCC3)nc(N3CCOCC3)n2)cc1	3.7%	-4%	-10	13%
Cc1ccc(N2C(=O)c3ccc(C(=O)Nc4cccnc4)cc3C2=O)c(C)c1	1.0%	0%	7	-11%
C(=N\Nc1nc2ccccc2[nH]1)/c1cccc2nccnc12	1.5%	0%	-4	-1%
CC(C)N(C)NC(=S)Nc1ccccc1	-0.6%	-7%	-8	-9%
Cc1c(Cl)ccc2c1NC(=O)[C@]21[C@@H]2C(=O)N(Cc3ccccc3)C(=O)[C@@H]2[C@@H]2CCCN21	1.0%	12%	1	0%

Overlap with the part before: six entries; new compounds follow.
SMILES	Rango-impB inh	miR-21 reporter	GLA inh pH 4.5	Rango release inh
Cc1cc(C)n(S(=O)(=O)c2cc(Cl)ccc2Cl)n1	-3.7%	-3%	2	7%
CC(C)c1ccc(/C=N/Nc2cc(N3CCOCC3)nc(N3CCOCC3)n2)cc1	3.7%	-4%	-10	13%
Cc1ccc(N2C(=O)c3ccc(C(=O)Nc4cccnc4)cc3C2=O)c(C)c1	1.0%	0%	7	-11%
C(=N\Nc1nc2ccccc2[nH]1)/c1cccc2nccnc12	1.5%	0%	-4	-1%
CC(C)N(C)NC(=S)Nc1ccccc1	-0.6%	-7%	-8	-9%
Cc1c(Cl)ccc2c1NC(=O)[C@]21[C@@H]2C(=O)N(Cc3ccccc3)C(=O)[C@@H]2[C@@H]2CCCN21	1.0%	12%	1	0%
NC(=O)c1cc([N+](=O)[O-])cc2c1C=Cc1ccccc1O2	3.8%	-3%	-14	10%
C=C(C)C1CC=C(C)/C(=N/NC(=O)COc2cccc(C)c2)C1 (stereo not given)	-0.8%	-19%	-2	43%
COc1cc2c(cc1OC)CN(CC(=O)Nc1ccccc1C#N)CC2	-0.1%	-1%	2	-8%
O=C(NC1CCCCCC1)C1CCN(C(=O)c2ccc(Br)cc2)CC1	5.9%	-1%	·	-18%
CC(C)CN(C(=O)COC(=O)CCc1c[nH]c2ccccc12)C1CCS(=O)(=O)C1 (stereo not given)	0.4%	2%	1	1%
CC(C)N1CC=C2C(C#N)=C(N)C(C#N)(C#N)C(c3ccccc3)C2C1 (stereo not given)	?	-5%	-15	?
Cn1c(N)c(C(=O)COC(=O)/C=C/c2ccccc2)c(=O)n(C)c1=O	0.2%	·	·	-6%
COc1cc(C(=O)NCC(c2cccs2)N2CCc3ccccc32)cc(OC)c1OC (stereo not given)	-1.7%	·	·	?
CCN1CCN(C(=S)NC(=O)/C=C/c2cccs2)CC1	6.5%	0%	3	4%
CCc1c(C)c(C#N)c2nc3ccccc3n2c1Nc1c(C)n(C)n(-c2ccccc2)c1=O	?	-3%	-6	?
Cc1nn2cc(-c3ccc(Cl)cc3)cnc2c1Br	1.3%	-45%	-11	-4%
